Source: PubChem BioAssay (National Center for Advancing Translational Sciences (NCATS))
2A Renilla – FMDV 2A StopGo reporter, Renilla signal; HEK cells with a luciferase reporter of 2A StopGo recoding; Potency, µM (top dose mostly 57.5 µM), for inactives: top-dose signal change, negative = less light; actives 0.32% (n = 120,000); AID 1745857; active means well fitted falling curve with a large enough effect; inconclusive means small, poorly fitted or top-dose-only effect; inactive means no such curve, though single readings can be large or run the other way; further: nearly all actives have a fitted effect of over 55% in size; overnight with compound
2A firefly – lowers the firefly signal of an FMDV 2A StopGo reporter; Potency, µM (doses to about 57.5 µM), for inactives: top-dose signal change, negative = less light; actives 0.23% (n = 120,000); HEK cells with a luciferase reporter of 2A StopGo recoding; AID 1745856; active = well fitted falling curve with a large enough effect; inconclusive = small, poorly fitted or top-dose-only effect; inactive = no such curve, though single readings can be large or run the other way; further: nearly all actives have a fitted effect of over 60% in size; overnight with compound
An asterisk follows results filed as active; ? = inconclusive; & = joins results of further samples; [ ] = dose if it differs, or a comment. On the % scale 0 is the no-effect control and ±100 the full control effect; potency means the concentration at half of the fitted maximal effect.

Second line of a record: 2A Renilla, 2A firefly
- COc1ccc(NC(=O)C(=O)NCc2ccccc2)c(OC)c1
  11%, 17%
- O=C(NCCCc1ccccc1)C(=O)NCc1n[nH]c(=O)c2ccccc12
  -14%, -7%
- Cc1cc(C)c2c(CC(=O)Nc3sc4c(c3C(N)=O)CCCC4)coc2c1
  -6%, 2%
- COc1cc(OC)c(NC(=O)Nc2sc3nc4n(c(=O)c3c2C)CCC(C)CC4)cc1Cl (stereo not given)
  -7%, -13%
- C=CCS(=O)(=O)c1ccc(Br)c2ccccc12
  5%, 20%
- O=C(CC12CC3CC(CC(C3)C1)C2)NCCc1ccc(Cl)cc1
  ?, 10%
- CC(C)(C)C(=O)CSc1nnc(COc2ccccc2Cl)n1C1CC1
  -10%[1.06 µM], ?
- Cc1cc(Cl)c(Cl)cc1S(=O)(=O)NCCCO
  398%[activator], 9%
- COc1ccccc1Cn1ccnc1SCC(=O)Nc1ccc(C(C)=O)cc1
  8%, 18%
- Cc1ccc(N2CC(NC(=O)/C=C\c3ccc4c(c3)OCO4)CC2=O)cc1 (stereo not given)
  -6%, -17%
- O=C(NCc1ccc(CN2CCCC2)cc1)c1cc(S(=O)(=O)N2CCCC2)ccc1Cl
  8%, -3%
- CC(C)(C)NC(=O)CSc1nc(-c2ccc(F)cc2)cc(C(F)(F)F)n1
  -10%, -16%
- Cc1cccc(NS(=O)(=O)c2ccc3oc(=O)ccc3c2)c1C
  37%[activator], 0%
- COCc1cccc(C(=O)NCC(O)c2ccccc2C(F)(F)F)c1 (stereo not given)
  6%, 44%[activator]
- Oc1ccc(C=NCC2(c3ccccc3)CCCC2)cc1
  -4%, -9%
- Cn1c2c(c(=O)n(C)c1=O)C(c1cc(Br)ccc1F)CC(=O)N2 (stereo not given)
  2%, 8%
- COc1ccc(C)cc1N(C)C(=O)CCc1nc(-c2ccccc2F)no1
  -3%, -10%
- Cc1ccc2sc(N(Cc3cccnc3)C(=O)CCS(=O)(=O)c3ccccc3)nc2c1C
  -1%&-9%, 5%&8%
- COC(=O)c1c(C)[nH]c(C(=O)N2CCCCCC2c2ccc(OC)cc2)c1C (stereo not given)
  175%[activator], 28%
- CCOC(=O)C(C)Nc1ncnc2onc(C)c12 (stereo not given)
  -5%, -16%
- CCCn1nc(C(=O)N2CCSCC2)c2ccccc2c1=O
  -13%, 3%
- CC(C)c1ccc2c(c1)C1(CC(=O)Nc3c1sc(C(=O)O)c3-c1ccccc1F)C(=O)N2C (stereo not given)
  -4%, 7%
- CCOC(=O)c1ccc(NC(=O)CN(c2ccc(C)cc2)S(=O)(=O)c2ccc(OC)cc2)cc1
  6%, -10%
- CCOC(=O)c1c(C)[nH]c(C(=O)CSc2nncn2C)c1C
  -7%, 47%[activator]
- COc1cc(C)c(NC(=O)Cn2cnc3c2c(=O)n(C)c(=O)n3C)cc1OC
  40%, 0%
- Cc1ccc(-n2c(=O)c3ccc(C(=O)NCc4ccccc4Cl)cc3n(Cc3cccc(F)c3)c2=O)cc1
  -4%, -5%
- CC(C)CCNC(=O)CN1N=C(c2ccc(Cl)cc2)CCC1=O
  -16%, -18%
- COc1ccc(-c2cn3c4ccccc4nc3n2CCCN2CCCCC2)cc1
  -19%, -9%
- CCc1c(C)nc2ncnn2c1Sc1ccccc1NC(=O)c1ccc2c(c1)OCO2
  -11%, 159%[activator]
- CN(C)c1nc(Oc2ccc(=O)n(C)n2)nc(N(C)C)n1
  9%, 0%

Shown bar-delimited: part of the list above.
smiles | 2A Renilla | 2A firefly
Oc1ccc(C=NCC2(c3ccccc3)CCCC2)cc1 | -4% | -9%
COc1cc(C)c(NC(=O)Cn2cnc3c2c(=O)n(C)c(=O)n3C)cc1OC | 40% | 0%

Continued:
Second line of a record: 2A Renilla, 2A firefly
- O=C(NC1CCCC1)c1ccc(Oc2nccnc2Sc2ccccc2)cc1
  3%, 20%
- Cc1cc(C(=O)C(C)(C)NO)ccc1Cl
  13%, 5%
- CCC1c2ccsc2CCN1C(=O)C1CCN(S(=O)(=O)c2ccc(C#N)cc2)CC1 (stereo not given)
  -1%, 4%
- COc1ccccc1N1C(=O)N(CC(=O)C(C)(C)C)c2ccccc2S1(=O)=O
  0%, -3%
- CCOC(=O)c1ccc(NC(=O)C2=C(C)Nc3nc(SCc4ccc(Cl)cc4)nn3C2c2ccc(OC)cc2)cc1 (stereo not given)
  -5%, -9%
- COC(=O)Cn1c(CN2CCN(c3ccc(OC)cc3)CC2)nc2c1c(=O)[nH]c(=O)n2C
  -15%, -19%
- O=C(CSc1nc2ccccc2nc1N1CCCC1)N1CCN(c2ccc(Cl)cc2)CC1
  10%, 0%
- COc1ccccc1NC(=O)c1nn(-c2ccccc2)c(=O)c2ccccc12
  -11%, -13%
- CCOC(=O)C1CCC(CNC(=O)N2CCCC2c2ccc(OC)cc2)CC1 (stereo not given)
  -3%, -5%
- CCCn1c2ccccc2c2cnn(CC(=O)NCCc3ccc(OCC)cc3)c(=O)c21
  -11%, -18%
- CC1CCN(S(=O)(=O)c2ccc3[nH]cc(C(=O)NCc4ccc(F)cc4)c(=O)c3c2)CC1
  -4%, -15%
- COc1ccc(C2C3=C(CCCC3=O)Nc3c(C#N)cnn32)c(OC)c1 (stereo not given)
  -9%, -4%
- CC(CN1c2ccccc2Sc2ccccc21)N(C)C (stereo not given)
  -14%, -2%[11.5 µM]
- Cc1oc2c(c(C)cc3o/c(=N/O)c4c(c32)CCCC4)c1C
  7%, 26%
- COc1ccc(C2C(C(N)=O)=C(C)Nc3nc(CCCO)nn32)cc1 (stereo not given)
  -6%, -5%
- COCCCn1c(=O)c2sccc2n2c(CCCC(=O)Nc3cccc(C(F)(F)F)c3)nnc12
  3%, -17%
- COc1ccc(N2CC(C(=O)N(C)Cc3cnn(C)c3)CC2=O)cc1 (stereo not given)
  -17%, -11%
- Cc1ccccc1-c1nc2cc(NC(=O)C(C)C)ccc2o1
  -1%, 98%[activator]
- COc1cccc(CNCCCSc2nnnn2C)c1
  -12%, 1%
- CCOC(=O)CCN(C(=O)CCc1c(C)c2ccc(OC)cc2oc1=O)C1CC1
  19%, 23%
- COc1ccc(/C=C/c2nc(C#N)c(N3CCC(C)CC3)o2)cc1OC
  13%, 23%
- CSc1ccccc1NC(=O)c1ccc2ccccc2c1
  17%, 173%[activator]
- COc1ccc(CNC(=O)CSc2nnc(C)n2C2CC2)cc1
  -5%, 1%
- Cc1ccc(Nc2c(-c3cc(Br)ccc3F)nc3cc(C)ccn23)cc1
  -13%, 5%
- CCCNC(=O)CNC(=O)c1cc2ccc(OC)cc2nc1C
  7%, 0%
- CC1CN(Cc2coc(-c3cccc(F)c3)n2)CCO1 (stereo not given)
  24%, 7%
- CC(=O)N1N=C(c2c(-c3ccccc3)c3cc(Cl)ccc3n(C)c2=O)CC1c1ccco1 (stereo not given)
  -21%, -27%
- Cc1ccc(S(=O)(=O)CCC(=O)OCC(=O)NC2CCCC2)cc1
  -12%, -6%
- CC(Sc1nc2ccccc2c(=O)n1CCCO)c1nnc(-c2ccccc2)o1 (stereo not given)
  20%, 0%
- CCOc1ccc(-n2c(=O)c3c(C)c(C)sc3n(Cc3ccc(C(C)(C)C)cc3)c2=O)cc1
  4%, -4%

Complete entries from above. Screens in order: 2A Renilla	2A firefly
Record of CC1CN(Cc2coc(-c3cccc(F)c3)n2)CCO1 (stereo not given) = 24%	7%
Record of CCOC(=O)C1CCC(CNC(=O)N2CCCC2c2ccc(OC)cc2)CC1 (stereo not given) = -3%	-5%
Record of CC(=O)N1N=C(c2c(-c3ccccc3)c3cc(Cl)ccc3n(C)c2=O)CC1c1ccco1 (stereo not given) = -21%	-27%
Record of Cc1ccc(Nc2c(-c3cc(Br)ccc3F)nc3cc(C)ccn23)cc1 = -13%	5%
Record of CCCNC(=O)CNC(=O)c1cc2ccc(OC)cc2nc1C = 7%	0%

(list continues)
Second line of a record: 2A Renilla, 2A firefly
- CCOC(=O)c1c(C)[nH]c(CCC(=O)Nc2ccccc2C(F)(F)F)c1C
  56%[activator], 43%[activator]
- O=C(O)c1cc(-c2ccc(C(F)(F)F)cc2)nc2n[nH]c(-c3ccccc3)c12
  -2%, 57%[activator]
- COc1ccc(C2c3c(n(C)c4ccccc34)C(=O)N2CC(=O)Nc2cccc(Cl)c2C)cc1 (stereo not given)
  -14%, -26%
- Cc1nc2nc(CC(=O)Nc3ccccc3F)nn2c(C)c1Cc1ccc(Cl)cc1
  -8%, -1%
- COc1ccc(C(=O)NCC(c2ccc3c(c2)OCO3)N2CCN(c3ccccc3F)CC2)cc1 (stereo not given)
  8%, -31%
- CCCn1cc(S(=O)(=O)c2ccccc2)c(=O)c2cc(F)c(N3CCCCC3)cc21
  -6%, -13%
- O=C(CSc1nnc2ccc(-c3ccncc3)nn12)N1CCN(c2ccccc2)CC1
  -2%, 8%
- CC(C)COc1ccc(/C=C(\C#N)C(=O)Nc2ccccc2C(=O)O)cc1
  112%[activator], 303%[activator]
- CNC1[C@@H]2CC3C[C@H]1CC(O)(C3)C2 (stereo not given in full)
  -4%, -5%
- Cc1ccc(CN2C(=O)c3ccccc3Sc3ccc(C(=O)NCc4ccco4)cc32)cc1
  54%[activator], -16%
- C=C1C(=C/C=C2\CCC[C@]3(C)[C@@H]([C@H](C)/C=C/[C@@H](O)C4CC4)CC[C@@H]23)C[C@@H](O)C[C@@H]1O
  ?, 8%[11.5 µM]
- CCCCN1C(C(=O)Nc2ncccn2)=C(O)c2ccccc2S1(=O)=O
  -3%, -1%
- CCN1CCN(c2oc(-c3ccc(S(=O)(=O)N4CCOCC4)cc3)nc2C#N)CC1
  -15%, 7%
- COc1ccc(C)cc1Nc1cc(C)nc(C)n1
  2%, 9%
- CCn1c(SCC(=O)c2ccc(Br)s2)nnc1-c1ccccc1OC
  42%[activator], 7%
- CCN(C(=O)Cn1cnc2c1c(=O)n(C)c(=O)n2C)C1CCCCC1
  4%, 11%
- Cc1ccc(NS(=O)(=O)c2ccc(C(=O)OCC(=O)c3ccc[nH]3)cc2)cc1
  -2%, 4%
- CCOc1ccccc1C(=O)Nc1c(NCc2ccccc2)c2ccccc2oc1=O
  33%[activator], 15%
- CCOC(=O)c1cnc(Nc2ccccc2F)c2ccccc12
  12%, 33%[activator]
- NC(=O)NC(=O)CSc1nc(-c2ccccc2)c(-c2ccccc2)o1
  -3%, 1%
- Cc1csc(C(C#N)C(=O)CN2CCCCCC2)n1 (stereo not given)
  12%, 4%
- CCOc1cccc2cc(S(=O)(=O)c3ccc(Cl)cc3)c(=O)oc12
  -27%, 7%
- O=C(NCC1COc2ccccc2O1)c1cccs1 (stereo not given)
  13%, 167%[activator]
- Cc1cc(N2CCC(C)CC2)nc(NCc2ccccc2)n1
  ?, ?
- O=Cc1ccc(OCc2ccc(Cl)c(Cl)c2)cc1
  1%, 222%[activator]
- CCc1ccccc1NC(=O)Nc1cc(C(=O)NCc2cccc(F)c2)ccc1N1CCCC1
  -2%, -7%
- CCOP(=O)(OCC)c1nc(-c2ccc(C)cc2)oc1NCc1cccnc1
  -3%, -7%
- COc1ccc(CNC(=O)c2sc(NC(C)C)nc2C)cc1
  6%, 33%[activator]
- CC(Sc1ccc(Cl)cc1)c1nc(-c2ccco2)no1 (stereo not given)
  1%, 50%[activator]
- Cc1nnc(SCC(=O)Nc2ccc(N(C)C)cc2)[nH]c1=O
  -3%, -6%
- CSc1ccccc1C(=O)Nc1c(C)cccc1C(C)C
  -10%[1.06 µM], 20%
- O=C(CSc1nnnn1-c1ccccc1)c1ccc(Br)s1
  115%[activator], 6%
- CCOC(=O)Cc1nnc(SC(C)C(=O)Nc2ccc(F)c(F)c2)n1Cc1ccccc1 (stereo not given)
  139%[activator], 0%
- CN(CC(=O)Nc1ccc(F)cc1F)S(=O)(=O)c1ccc(C(=O)N2CCOCC2)s1
  -2%&-11%, 17%&-12%
- COc1ccc(-c2onc(C)c2C)cc1S(=O)(=O)NCC1CCN(Cc2cc(C)ccc2C)CC1
  120%[activator], -12%
- COc1cc(OC)cc(C(=O)Nc2ccc3c(c2)CCCN3C(=O)c2cccs2)c1
  -39%, 25%
- Cc1ccc(-c2nc3ccccc3n3c(-c4ccccc4)c4c(=O)n(C)c(=O)n(C)c4c23)cc1
  0%, -13%
- CC(C)CCn1c(=O)c2sccc2n2c(CCCC(=O)NC(C)C)nnc12
  -12%, 11%
- Cc1ccc2c(COC(=O)C3CCC(C(C)(C)C)CC3)cc(=O)oc2c1C (stereo not given)
  -1%[1.06 µM], 13%
- CCc1ccc2c(c1)c(=O)c(C(=O)c1ccc(C)cc1)cn2CC(=O)Nc1ccccc1C
  -8%, ?
- Cc1noc(Cn2c(=O)c3ccccc3n(CC(=O)Nc3ccccc3C(F)(F)F)c2=O)n1
  -5%, 3%
- O=S(=O)(Cc1ccccc1)CC1CC1(Cl)Cl (stereo not given)
  11%, 8%
- Cc1n[nH]c(C)c1S(=O)(=O)Nc1ncn(Cc2ccccc2F)n1
  -4%, 1%
- CCc1ccccc1NC(=O)CSc1nc2c(cc1C#N)CCCC2
  -8%, -1%
- O=C(CC1(C(=O)O)CCCCC1)Nc1ccccc1CO
  -7%, 0%
- CCNc1nc2c(c(=O)[nH]c(=O)n2C)n1CC(O)COc1ccc(Cl)cc1Cl (stereo not given)
  42%[activator], 59%[activator]
- Cc1ccc(Cl)cc1N(C)C(=O)c1sc2nc3n(c(=O)c2c1C)CCCC3
  6%, 4%

These rows are one share of the data; rates above refer to the full screens.
